FGF22 binding: binders of human FGF22 protein, primary screen, FGF22 synaptogenesis inhibitor project, biophysical, thermal shift, single point; Fibroblast growth factor 22 (Homo sapiens), Q9HCT0; recombinant FGF22 thermal shift, SYPRO orange fluorescence; percent of sucrose octasulfate shift, DMSO zero; calls only at 9.99 µM; actives 1.5% (n = 340,000);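 active = melting point raised past a set limit in the mean and every replicate; three in four hits are not shown here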
Target sequence (Q9HCT0 whole entry, looked up): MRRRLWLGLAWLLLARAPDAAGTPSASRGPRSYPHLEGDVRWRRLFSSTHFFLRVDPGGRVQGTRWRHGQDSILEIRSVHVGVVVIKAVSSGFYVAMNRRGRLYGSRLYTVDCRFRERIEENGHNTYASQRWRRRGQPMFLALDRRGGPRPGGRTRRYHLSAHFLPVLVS
UCH37 inh: inhibitors of human UCH37 deubiquitinase, primary screen, biochemical, Ub-AMC cleavage, fluorescence; Ubiquitin carboxyl-terminal hydrolase isozyme L5 (Homo sapiens), Q9Y5K5; actives 0.33% (n = 330,000); inhibition, % (concentration not given with the values); AID 588478, 2011; purified proteasome/UCH37;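 active = mean of two replicates above 20%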;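 note: 0% = compound-free wells with enzyme and 100% = wells lacking proteasome; stock transfer was 100 nL into about 20 µL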
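Material: human UCH37 enzyme supplied as purified proteasome complex. Measure: % inhibition of Ub-AMC cleavage fluorescence. Medium: pH 7.4 Tris-HCl (50 mM) with ovalbumin, ATP-MgCl2, DTT. Times: 30 min preincubation with enzyme, 25 min cleavage at room temperature. Detection: AMC fluorescence intensity at 355/460 nm.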
ALR H2O2 inh: inhibitors of human ALR sulfhydryl oxidase, primary screen, biochemical, H2O2 detection, HRP-luminol luminescence, single point; purified ALR, DTT oxidation; FAD-linked sulfhydryl oxidase ALR (Homo sapiens), P55789; inhibition, % (no concentration beside the values); AID 485317, 2010; actives 3.8% (n = 290,000);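 active = mean and each replicate at 75% or more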;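 note: stock transfer was 7.5 nL into about 7.5 µL; 0% = neutral wells and 100% = wells with inactivated enzyme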
B2AR ag: beta2AR agonists driving receptor internalization, primary screen, cell-based, FAP fluorogen, flow cytometry. Beta-2 adrenergic receptor (Homo sapiens), P07550. Am2.2-beta2AR cells; reference of the scale not given here. response, % (concentration not given with the values). actives 0.43% (n = 340,000). AID 504454, 2011;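 active = response above a set limit, near 3 SD of response in nonfluorescent compounds, cut at about 42% in these data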;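 note: stock transfer was 100 nL into about 11 µL; a reference agonist was the positive control; negative values mostly stem from fluorescent compounds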
Target sequence (P07550 whole entry, looked up): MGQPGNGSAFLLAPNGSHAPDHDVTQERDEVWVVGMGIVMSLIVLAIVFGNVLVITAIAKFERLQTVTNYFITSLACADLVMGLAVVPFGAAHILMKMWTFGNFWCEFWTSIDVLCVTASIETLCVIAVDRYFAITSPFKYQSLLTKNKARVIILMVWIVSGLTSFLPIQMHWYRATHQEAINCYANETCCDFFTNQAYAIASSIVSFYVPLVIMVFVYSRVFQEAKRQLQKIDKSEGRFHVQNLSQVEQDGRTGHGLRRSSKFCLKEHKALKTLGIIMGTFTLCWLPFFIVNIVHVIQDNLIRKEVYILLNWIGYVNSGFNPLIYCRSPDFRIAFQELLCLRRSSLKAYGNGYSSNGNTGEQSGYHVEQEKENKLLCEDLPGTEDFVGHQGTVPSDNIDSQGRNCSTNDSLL
E coli growth: E. coli growth inhibition, primary screen, OD600; OD600 absorbance (test concentration not listed); Escherichia coli growth, 23 h; hits give low values; actives 0.21% (n = 330,000);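 active = OD600 absorbance below the run mean of sample wells minus 3.6 SD, in any replicate, cut at about 0.56 in these data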;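 note: stock transfer was 300 nL into about 60 µL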
HNF4A DNA FP: change in binding of human HNF4A to DNA, primary screen, biochemical, fluorescence polarization, FITC-DNA; Hepatocyte nuclear factor 4-alpha (Homo sapiens), P41235; 1 h; activity change, % at 10 µM; actives 0.3% (n = 360,000); in the data active = activity change above about 30%, passing the limit was not always enough;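 note: controls were the assay level and a saturating level of protein; the project sought stronger binding though the title names inhibitors; some compounds called inactive have numbers as strong as hits; positive values seem to mean higher polarization but the record does not say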
Target sequence (P41235 whole entry, looked up): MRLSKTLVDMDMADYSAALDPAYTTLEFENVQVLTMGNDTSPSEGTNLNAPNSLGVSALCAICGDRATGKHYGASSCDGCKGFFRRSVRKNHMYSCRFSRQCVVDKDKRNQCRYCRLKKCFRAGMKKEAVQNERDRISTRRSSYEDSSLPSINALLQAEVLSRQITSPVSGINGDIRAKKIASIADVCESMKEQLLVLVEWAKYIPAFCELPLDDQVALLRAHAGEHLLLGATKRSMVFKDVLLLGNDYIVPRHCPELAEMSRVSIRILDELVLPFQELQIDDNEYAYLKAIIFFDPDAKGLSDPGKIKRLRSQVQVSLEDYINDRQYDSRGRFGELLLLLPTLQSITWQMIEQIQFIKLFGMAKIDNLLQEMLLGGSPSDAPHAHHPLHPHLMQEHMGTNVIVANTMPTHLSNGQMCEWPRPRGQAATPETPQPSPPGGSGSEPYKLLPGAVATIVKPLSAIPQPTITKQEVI
Ecoli rRNA inh: reduced GFP signal of wild-type E. coli, primary screen, bacterial rRNA inhibitor project, GFP/RFP fluorescence, OD600, single point. GFP signal change (wild-type ribosome), % (no concentration beside the values). actives 1.6% (n = 350,000). E. coli WT GFP vs humanized-ribosome RFP mutants, 24 h; hits give low values; DMSO median 0, no signal -100. AID 720706, 2013;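 active = significant combined selectivity score with lowered wild-type GFP, culture density cut under 30%, mutant RFP and density less affected; inactive = any of these conditions unmet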; note: one replicate is shown; some compounds called inactive have numbers as strong as hits
Ecoli rRNA inh OD600: recorded beside Ecoli rRNA inh, whose call it bears; OD600 change, %; measured here: OD600 growth;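 optical density of the mix in the first replicate; 0 = DMSO median and -100 = no signal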
Ecoli rRNA inh RFP: also measured in Ecoli rRNA inh; calls as there; RFP signal change, %; measured here: RFP humanized mutant strains;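 first replicate; 0 = DMSO median and -100 = no signal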
Starred values were filed as active, the others as inactive. This is a subset; rates above refer to the full screens.

Sample of the layout:
For Cc1cccc(NC(=O)CCNS(=O)(=O)c2ccc3[nH]c(=O)oc3c2)c1 the results were FGF22 binding inactive, UCH37 inh 3.8, ALR H2O2 inh -0.3, B2AR ag -8.1, E coli growth 0.701, HNF4A DNA FP 1.7, Ecoli rRNA inh 11.7, Ecoli rRNA inh OD600 8.0 and Ecoli rRNA inh RFP 2.3.
For CC(=O)Nc1ccc(C2=NNC(=NCC3CCCO3)SC2)cc1 (configuration not stated) the results were FGF22 binding inactive, UCH37 inh 2.6, B2AR ag 8.8, E coli growth 0.705, HNF4A DNA FP 3.9, Ecoli rRNA inh -10.7, Ecoli rRNA inh OD600 12.1 and Ecoli rRNA inh RFP 24.4.

Results, repeating the preview:
For Cc1cccc(NC(=O)CCNS(=O)(=O)c2ccc3[nH]c(=O)oc3c2)c1 the results were FGF22 binding inactive, UCH37 inh 3.8, ALR H2O2 inh -0.3, B2AR ag -8.1, E coli growth 0.701, HNF4A DNA FP 1.7, Ecoli rRNA inh 11.7, Ecoli rRNA inh OD600 8.0 and Ecoli rRNA inh RFP 2.3.
For CC(=O)Nc1ccc(C2=NNC(=NCC3CCCO3)SC2)cc1 (configuration not stated) the results were FGF22 binding inactive, UCH37 inh 2.6, B2AR ag 8.8, E coli growth 0.705, HNF4A DNA FP 3.9, Ecoli rRNA inh -10.7, Ecoli rRNA inh OD600 12.1 and Ecoli rRNA inh RFP 24.4.
For COc1ccc(Cl)cc1S(=O)(=O)N1CCC(C(=O)NCCC2=CCCCC2)CC1 the results were FGF22 binding inactive, UCH37 inh 1.7, ALR H2O2 inh 0.9, B2AR ag -1.2, E coli growth 0.727, HNF4A DNA FP -1.3, Ecoli rRNA inh -3.8, Ecoli rRNA inh OD600 8.4 and Ecoli rRNA inh RFP -2.3.
For CCCCn1c(=O)nc2n(-c3ccc(OC)cc3)c3ccccc3cc-2c1=O the results were UCH37 inh -30.6, ALR H2O2 inh 10.3, B2AR ag 1.5, E coli growth 0.659, HNF4A DNA FP 2.0, Ecoli rRNA inh 7.2, Ecoli rRNA inh OD600 2.5 and Ecoli rRNA inh RFP -1.7.
Cc1ccc2nc(C)c3c(c2c1)N(c1ccc(F)cc1)CC3 was read as FGF22 binding inactive, UCH37 inh -28.7, ALR H2O2 inh 0.7, B2AR ag -0.7, E coli growth 0.664, HNF4A DNA FP 4.7, Ecoli rRNA inh -6.9, Ecoli rRNA inh OD600 -9.4 and Ecoli rRNA inh RFP -1.0.
For Cc1ccc(NC(=O)c2ccc(S(=O)(=O)NCc3cccnc3)cc2)cc1C the results were FGF22 binding inactive, UCH37 inh 4.2, ALR H2O2 inh -0.1, B2AR ag 3.4, E coli growth 0.636, HNF4A DNA FP 5.2, Ecoli rRNA inh -6.3, Ecoli rRNA inh OD600 -1.4 and Ecoli rRNA inh RFP -0.3.
CCC(=O)N1CCN=C1SCc1ccccc1 was read as FGF22 binding inactive, UCH37 inh 1.1, ALR H2O2 inh -7.5, B2AR ag -29.6, E coli growth 0.727, HNF4A DNA FP 2.2, Ecoli rRNA inh 5.1, Ecoli rRNA inh OD600 4.2 and Ecoli rRNA inh RFP 1.3.
`COc1ccccc1C(=O)NCC(C)(C)CN=C1NS(=O)(=O)c2ccccc21` gave FGF22 binding inactive, UCH37 inh -1.0, B2AR ag -12.3, E coli growth 0.705, HNF4A DNA FP 0.3, Ecoli rRNA inh -8.4, Ecoli rRNA inh OD600 -12.1 and Ecoli rRNA inh RFP -1.4.
`Cc1ccc(C(=O)CC(=O)c2ccccc2)cc1` gave FGF22 binding inactive, UCH37 inh -1.3, ALR H2O2 inh 0.7, B2AR ag -3.6, E coli growth 0.643, HNF4A DNA FP -3.9, Ecoli rRNA inh -5.7, Ecoli rRNA inh OD600 1.1 and Ecoli rRNA inh RFP -4.1.
O=C(Oc1ccc(Cl)cc1)N1CCCCC1 was read as UCH37 inh 5.2, ALR H2O2 inh 1.2, B2AR ag 3.2, E coli growth 0.684 and HNF4A DNA FP -1.3.
Cc1ccn(-c2cccc(-n3ccc(C)n3)n2)n1 was read as UCH37 inh -0.5, ALR H2O2 inh -3.8, B2AR ag -8.5, E coli growth 0.637 and HNF4A DNA FP -1.4.
Screening O=S1(=O)CCN2C(c3ccc4c(c3)CCCC4)=CSC2=N1 returned UCH37 inh 4.7, B2AR ag -9.6, E coli growth 0.682 and HNF4A DNA FP 0.6.
Screening COCCNC(=O)/C(C#N)=C/c1ccc(OCC(=O)NC2CCCCC2)cc1 returned UCH37 inh 8.2, ALR H2O2 inh -10.9, B2AR ag -10.3, E coli growth 0.649, HNF4A DNA FP 5.2, Ecoli rRNA inh 13.2, Ecoli rRNA inh OD600 5.1 and Ecoli rRNA inh RFP 0.3.
For CCOc1ccc(OCc2cccc(C(=O)N(CC)CC)c2)cc1 the results were FGF22 binding inactive, UCH37 inh 5.9, ALR H2O2 inh -2.0, B2AR ag 2.3, E coli growth 0.7, HNF4A DNA FP 0.6, Ecoli rRNA inh -2.7, Ecoli rRNA inh OD600 -2.2 and Ecoli rRNA inh RFP -3.8.
For COc1ccc(N(CC(=O)NC2CCCC2)C(=O)c2csnn2)cc1 the results were UCH37 inh 3.8, ALR H2O2 inh -13.9, B2AR ag 3.9, E coli growth 0.672 and HNF4A DNA FP 2.4.
For CCOC(=O)C1=C(CN2CCSCC2)NC(=O)NC1c1cccc([N+](=O)[O-])c1 (configuration not stated) the results were FGF22 binding inactive, UCH37 inh 2.8, ALR H2O2 inh -3.9, B2AR ag 7.5, E coli growth 0.695, HNF4A DNA FP 1.7, Ecoli rRNA inh 4.7, Ecoli rRNA inh OD600 5.9 and Ecoli rRNA inh RFP -4.1.
Cc1cc(C(F)(F)F)nc(-n2cc(-c3ccccc3)nn2)n1 was read as FGF22 binding inactive, UCH37 inh 1.7, ALR H2O2 inh -7.8, B2AR ag -11.2, E coli growth 0.719, HNF4A DNA FP 0.9, Ecoli rRNA inh 7.4, Ecoli rRNA inh OD600 9.5 and Ecoli rRNA inh RFP -3.4.
Screening c1ccc(-c2c(-c3ccccc3)n(Cc3ccco3)c3ncnc(NCCCn4ccnc4)c23)cc1 returned UCH37 inh -12.6, ALR H2O2 inh -9.5, B2AR ag 1.4, E coli growth 0.663 and HNF4A DNA FP 5.4.
CN(Cc1ccc(OCC(O)CN2CCCCC2)cc1)Cc1ccnc2ccccc12 (configuration not stated) was read as FGF22 binding inactive, UCH37 inh -0.7, B2AR ag -2.2, E coli growth 0.623, HNF4A DNA FP 1.9, Ecoli rRNA inh 6.3, Ecoli rRNA inh OD600 4.4 and Ecoli rRNA inh RFP 2.6.
For COc1ccc(CN2CCN(C3CCSCC3)CC2CCO)c(C)c1C (configuration not stated) the results were FGF22 binding inactive, UCH37 inh 4.2, ALR H2O2 inh 2.2, B2AR ag 0.3, E coli growth 0.69, HNF4A DNA FP 0.8, Ecoli rRNA inh 8.9, Ecoli rRNA inh OD600 -5.8 and Ecoli rRNA inh RFP -0.7.
Screening COc1ccc(CCn2c(C)c(C(C)=O)c3cc(OC(=O)c4ccco4)ccc32)cc1OC returned UCH37 inh 5.4, ALR H2O2 inh 3.5, B2AR ag 8.3, E coli growth 0.659 and HNF4A DNA FP -0.6.
`O=C(CSc1nnc(NC(=O)c2ccc(F)cc2F)s1)NC1CC1` gave FGF22 binding inactive, UCH37 inh 3.3, ALR H2O2 inh -3.7, B2AR ag 2.7, E coli growth 0.7, HNF4A DNA FP 2.3, Ecoli rRNA inh 8.9, Ecoli rRNA inh OD600 16.9 and Ecoli rRNA inh RFP 0.9.
For O=C(c1ccc(CS(=O)(=O)c2ccc(Br)cc2)o1)N1CCN(c2ccccn2)CC1 the results were FGF22 binding inactive, UCH37 inh 2.1, ALR H2O2 inh -0.4, B2AR ag -16.8, E coli growth 0.732, HNF4A DNA FP 4.7, Ecoli rRNA inh -7.9, Ecoli rRNA inh OD600 -10.4 and Ecoli rRNA inh RFP -3.6.
For COc1cccc(Nc2ncc(C#N)c(N)n2)c1 the results were FGF22 binding inactive, UCH37 inh 1.4, ALR H2O2 inh 11.1, B2AR ag 2.5, E coli growth 0.688, HNF4A DNA FP 3.6, Ecoli rRNA inh -1.4, Ecoli rRNA inh OD600 4.8 and Ecoli rRNA inh RFP -1.7.
For CCOc1ccc(N=C(NN)c2ccc3ccccc3n2)cc1 the results were UCH37 inh 3.2, ALR H2O2 inh -27.3, B2AR ag -18.6, E coli growth 0.736 and HNF4A DNA FP -1.2.
`O=C(Nc1ccc(NC(=O)c2ccco2)c(Cl)c1)c1ccc2c(c1)OCCO2` gave FGF22 binding inactive, UCH37 inh -15.0, ALR H2O2 inh 0.4, B2AR ag -5.7, E coli growth 0.711, HNF4A DNA FP -6.6, Ecoli rRNA inh 1.7, Ecoli rRNA inh OD600 1.5 and Ecoli rRNA inh RFP 0.4.
For CC(=O)Nc1cccc(-c2cc3c(c4c2ccn4C)C2CCC3O2)c1 (configuration not stated) the results were FGF22 binding inactive, HNF4A DNA FP -1.6, Ecoli rRNA inh 4.6, Ecoli rRNA inh OD600 -1.9 and Ecoli rRNA inh RFP -3.5.
For CC(Sc1n[nH]c(N)n1)c1nc2scc(-c3cccs3)c2c(=O)[nH]1 (configuration not stated) the results were UCH37 inh 3.7, B2AR ag 3.3, E coli growth 0.713 and HNF4A DNA FP -4.5.
`CC(C)(C)n1nc2c(c1NC(=O)c1ccccc1)CS(=O)(=O)C2` gave FGF22 binding inactive, UCH37 inh 0.5, ALR H2O2 inh 26.2, B2AR ag -1.5, E coli growth 0.699, HNF4A DNA FP 7.8, Ecoli rRNA inh 11.7, Ecoli rRNA inh OD600 9.4 and Ecoli rRNA inh RFP -2.7.
For COc1ccc(CCNC(=O)[C@H](C)NC(=O)N2CCn3c2nc2ccccc23)cc1OC the results were FGF22 binding inactive, UCH37 inh 7.3, ALR H2O2 inh -2.6, B2AR ag -6.0, E coli growth 0.706, HNF4A DNA FP 2.1, Ecoli rRNA inh 4.2, Ecoli rRNA inh OD600 10.0 and Ecoli rRNA inh RFP -1.3.
`Clc1ccc(CSc2ncnc3nc[nH]c23)cc1` gave FGF22 binding inactive, UCH37 inh 2.3, ALR H2O2 inh 1.1, B2AR ag -8.2, E coli growth 0.717, HNF4A DNA FP 3.0, Ecoli rRNA inh -31.7, Ecoli rRNA inh OD600 -35.8 and Ecoli rRNA inh RFP -9.3.
Screening CCC(C)N1C(=O)C2C(C(=O)Nc3cccc(OC)c3)C3C=CC2(O3)C1C(=O)NC1CCCCC1C (configuration not stated) returned UCH37 inh 1.2, ALR H2O2 inh -13.7, B2AR ag 9.2, E coli growth 0.688 and HNF4A DNA FP 1.7.
Cc1ccc(S(=O)(=O)N(C)C)cc1NC(=S)N1CCCCC1CO (configuration not stated) was read as FGF22 binding inactive, UCH37 inh 4.0, ALR H2O2 inh 0.9, B2AR ag 1.7, E coli growth 0.671, HNF4A DNA FP 3.4, Ecoli rRNA inh 7.2, Ecoli rRNA inh OD600 5.4 and Ecoli rRNA inh RFP -2.2.
For O=C(NC1CCCCC1)c1c(O)nc2sccn2c1=O the results were FGF22 binding inactive, UCH37 inh 2.3, ALR H2O2 inh 60.2, B2AR ag 11.0, E coli growth 0.67, HNF4A DNA FP -5.5, Ecoli rRNA inh -7.8, Ecoli rRNA inh OD600 1.9 and Ecoli rRNA inh RFP -7.9.
